Bioassay records from PubChem BioAssay.
BJeLR lethal – kills HRASV12-expressing BJeLR cells. BJeLR (HRASV12) viability, CellTiter-Glo ATP luminescence, 48 h; reference of the scale not given here. AID 1554. inhibition, % (no concentration beside the values). 300,000 tested, 0.17% active;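 active = replicate mean above 50%; inconclusive = above 50% but judged a plate artefact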;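 note: 50 nL library stock added to about 25 µL; numbers are from one replicate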
PrP 5UTR inh – suppresses PrP 5' UTR mRNA reporter expression; cell-based PrP 5' UTR mRNA reporter, plate reader; inhibition, % (test concentration not listed); 340,000 tested, 0.35% active;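 active = every replicate at 50% or more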;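 note: 0 = median of the neutral control wells; tested in H4 reporter cells; numbers are from one replicate; inactives centre near -14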
Sa ugtP lethal – compounds lethal to S. aureus RN4220 ugtP deletion mutant | OD600 growth, 16 h; some inactives read as strong as hits | growth inhibition, % (concentration not given with the values) | 330,000 tested, 0.54% active | AID 1259309;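 active = z-score under -3 and OD600 up to 0.15 on both plates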;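 note: plate controls were untreated wells for no effect and antibiotic for full effect; wells of about 80 µL received 100 nL stock; the first replicate is given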
Autofluor counter – flagged as autofluorescent in microsphere protease counterscreen; compound autofluorescence counterscreen, microsphere flow cytometry; stronger effect = higher value; fluorescence intensity (no concentration beside the values); 360,000 tested, 3.1% active; AID 624483;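 active = at least 3 SD above the mean of all compounds, about 16000 in these data; inconclusive = too few beads counted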;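 note: 100 nL of 1 mM stock went into each well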
Sa RN4220 lethal – S. aureus RN4220 growth inhibition | inhibition, % (no concentration beside the values) | OD600, 16 h | 330,000 tested, 0.33% active;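 active = z-score of -3 or lower and OD600 up to 0.18 on both plates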;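 note: plate controls were untreated cells for no effect and reference antibiotic for full effect; stock transfer was 100 nL into about 80 µL; one replicate is shown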
Mtb hypoxia rep – Mtb hypoxia fluorescent reporter inhibition. M. tuberculosis hypoxia-regulated fluorescent reporter, fluorescence. AID 1159583. fluorescence inhibition, % (test concentration not listed). 300,000 tested, 0.1% active;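 active = 35 to 45% if threefold the growth effect, above 45% if 1.5-fold the growth effect; inactive = the rest, general growth blockers included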;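 note: wells of about 50 µL received 100 nL stock; 0% = vehicle wells and 100% = reference inhibitor wells; whole bacteria with a GFP reporter of the hypoxia response; strong numbers were not always called active; many hits fall short of the cut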
Mtb hypoxia rep growth – further read-out of Mtb hypoxia rep, marked with its call; growth inhibition, %; measured here: M. tuberculosis growth (absorbance);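 0% = vehicle and 100% = reference antibiotic; read after six days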
Active calls of the source: *; ? = inconclusive; . = no result given.

SMILES	BJeLR lethal	PrP 5UTR inh	Sa ugtP lethal	Autofluor counter	Sa RN4220 lethal	Mtb hypoxia rep	Mtb hypoxia rep growth
CCCCCC1CCC(C(=O)O)CC1 (stereo not given)	14	-27	-7	10003	-3.4	2	7
CC(C)c1ccc(Nc2nnc(SCC(=O)c3nnc(-c4ccccc4)o3)s2)cc1	.	-63	-17	5198	7.3	-1	1
COc1ccc2c(c1)OCC1C2N2C(=O)CN(Cc3ccc(F)cc3)C(=O)[C@@]2(C)C1c1ccccc1 (stereo not given in full)	.	.	-16	.	-5.9	1	4
COc1ccc(C(C[N+](=O)[O-])C2(c3ccc(OC)c(OC)c3)C(=O)c3ccccc3C2=O)cc1 (stereo not given)	0	-3	.	7481	.	.	.
CCCNC(=O)Cc1c(O)c2ccccc2[nH]c1=O	4	-24	-9	2905	-0.6	-1	-6
NS(=O)(=O)c1ccc(N=Nc2c[nH]c(=O)c(O)c2)cc1	0	.	-5	3407	6.2	.	.
O=C(O)c1ccc(NN=CC2=C(N3CCOCC3)/C(=C/c3ccccc3)CC2)cc1	.	-18	2	3891	4.6	2	6
Cc1ccc(S(=O)(=O)NCc2ccccc2)cc1C(=O)N1CCN(c2ccccc2)CC1	.	-28	4	3941	5.3	5	2
Cc1ccc(NC(=O)C2C3C=CC(O3)C2C(=O)O)c(C)c1 (stereo not given)	-2	-22	.	3948	.	.	.
CCCc1nc(SCC(=O)NC2CCCC2)c2ccccc2n1	4	-29	8	4107	1.5	10	-1
NC(=O)N/N=C/c1ccccc1OC(=O)c1ccccc1Br	-2	-1	.	4668	.	.	.
Cc1cc(S(=O)(=O)N2CCCCC2)ccc1OCC(=O)Nc1ccccc1	-17	-9	2	4868	-1.4	6	1
Cc1ccc(C(=O)NCCC2=CCCCC2)cc1S(=O)(=O)N1CCOCC1	-9	-29	3	.	1.9	8	7
CC1(C)CCC(=O)N2CC[C@H]3C[C@H](OC(=O)Nc4ccc(Br)cc4)C[C@@H]1[C@H]32	3	-14	.	5053	.	.	.
COc1cc(C=NNC2=NS(=O)(=O)c3ccccc32)cc(OC)c1OC	.	.	10	.	3.1	1	2
O=C(Nc1cc(Sc2nc3ccccc3s2)cc([N+](=O)[O-])c1)c1ccccc1	-5	-12	-29	3325	-7.3	3	12
C=CCn1c(SCC(=O)NC2CC2)nnc1C1CC1	-3	-3	2	5258	1.4	11	-9
O=C(CCc1ccccc1)Nc1ccc2c(c1)OCCO2	-4	-97	3	4587	-1.8	.	.
CCOC(=O)c1ccc(N[C@@H]2CCN3C(=O)c4ccccc4[C@@H]3C[C@H]2O)cc1	.	3	3	3081	1.8	3	2
CC(=O)Nc1ccc(NC(=O)c2c(C)c(-c3ccccc3)nc3ccccc23)cc1	6	-14	-2	3135	1.9	-10	-1
CCOc1cccc2cc(C(=O)NCc3ccccc3Cl)c(=O)oc12	3	-22	-4	3379	1.2	-4	8
CN(C)CC#CCOCCOCCC#N	-7	-14	5	3307	3.4	16	3
COc1ccc(CC(=O)N/N=C/c2sccc2C)cc1	-7	-31	.	3624	.	.	.
S=C(Nc1ccc(OCc2ccccc2)cc1)Nc1cccc(Cl)c1Cl	-2	-6	10	2442	-7.0	10	4
Cc1oc(-c2ccccc2)nc1CS(=O)CC(=O)O (stereo not given)	-5	-11	4	5579	1.5	7	6

Fetched by structure from the entries so far, four records:
SMILES	BJeLR lethal	PrP 5UTR inh	Sa ugtP lethal	Autofluor counter	Sa RN4220 lethal	Mtb hypoxia rep	Mtb hypoxia rep growth
O=C(CCc1ccccc1)Nc1ccc2c(c1)OCCO2	-4	-97	3	4587	-1.8	.	.
S=C(Nc1ccc(OCc2ccccc2)cc1)Nc1cccc(Cl)c1Cl	-2	-6	10	2442	-7.0	10	4
CC(=O)Nc1ccc(NC(=O)c2c(C)c(-c3ccccc3)nc3ccccc23)cc1	6	-14	-2	3135	1.9	-10	-1
CCOc1cccc2cc(C(=O)NCc3ccccc3Cl)c(=O)oc12	3	-22	-4	3379	1.2	-4	8

The main list resumes with the six entries that preceded the break.
SMILES	BJeLR lethal	PrP 5UTR inh	Sa ugtP lethal	Autofluor counter	Sa RN4220 lethal	Mtb hypoxia rep	Mtb hypoxia rep growth
CC(=O)Nc1ccc(NC(=O)c2c(C)c(-c3ccccc3)nc3ccccc23)cc1	6	-14	-2	3135	1.9	-10	-1
CCOc1cccc2cc(C(=O)NCc3ccccc3Cl)c(=O)oc12	3	-22	-4	3379	1.2	-4	8
CN(C)CC#CCOCCOCCC#N	-7	-14	5	3307	3.4	16	3
COc1ccc(CC(=O)N/N=C/c2sccc2C)cc1	-7	-31	.	3624	.	.	.
S=C(Nc1ccc(OCc2ccccc2)cc1)Nc1cccc(Cl)c1Cl	-2	-6	10	2442	-7.0	10	4
Cc1oc(-c2ccccc2)nc1CS(=O)CC(=O)O (stereo not given)	-5	-11	4	5579	1.5	7	6
COC(=O)Cn1c(C)nc([N+](=O)[O-])c1Br	9	-18	4	4091	4.1	9	1
O=C(N/N=C/c1cccc(O)c1)C(=O)N1CCCCCC1	-4	0	.	6530	.	.	.
COc1ccc(OC)c(CNC(=O)CCCn2ccc3cc(S(=O)(=O)N4CCCC4)ccc32)c1	2	4	8	3998	3.7	1	-5
CCOC(=O)c1cc(C)nc(SC)c1C#N	-8	-33	-4	5451	3.7	11	4
CCOC(=O)c1ccccc1NC(=O)Cn1cnc2c(cnn2-c2ccc(F)cc2)c1=O	.	-14	-1	2424	-14	3	2
Oc1ccc(C=NNc2cc(N3CCOCC3)nc(N3CCOCC3)n2)cc1	.	.	-5	.	1.1	0	16
C=CCNc1ccc(N2C(=O)CCCC2=O)cc1[N+](=O)[O-]	4	-12	-1	3321	1.9	8	-4
Cc1cc(O)ccc1Nc1nc(-c2cccs2)cs1	-4	-50	-5	3564	0.8	-4	-3
COc1ccc(-c2nnc(-c3ccc(F)cc3)o2)cc1	5	-41	1	3771	7.8	.	.
Cc1cnc(CN(C)C(=O)CC2C(=O)NCCN2CCCc2ccccc2)[nH]1 (stereo not given)	13	-12	7	?	0.1	13	4
COc1cc(C)c(NC(=O)C(=S)NCc2ccccc2)cc1C	14	-15	-5	4433	2.8	0	-2
CCOC(=O)c1ccccc1NC(=O)CSc1nc2ccccc2o1	7	-19	3	8401	3.8	4	2
COc1ccc(C(O)(CCC(C)C)C(CN2CCOCC2)c2ccccc2)cc1 (stereo not given)	-1	-28	-11	3642	-4.3	-9	5
COc1cc(OC)nc(NC(=O)CSc2nc3ccccc3[nH]2)n1	-2	-16	-2	10917	2.4	6	0
COCCCN(C(=S)Nc1cc(C)cc(C)c1)C(C)c1ccncc1 (stereo not given)	-15	-3	8	1960	2.9	7	6

Among those listed so far, 3 have bromine.
SMILES	BJeLR lethal	PrP 5UTR inh	Sa ugtP lethal	Autofluor counter	Sa RN4220 lethal	Mtb hypoxia rep	Mtb hypoxia rep growth
NC(=O)N/N=C/c1ccccc1OC(=O)c1ccccc1Br	-2	-1	.	4668	.	.	.
CC1(C)CCC(=O)N2CC[C@H]3C[C@H](OC(=O)Nc4ccc(Br)cc4)C[C@@H]1[C@H]32	3	-14	.	5053	.	.	.
COC(=O)Cn1c(C)nc([N+](=O)[O-])c1Br	9	-18	4	4091	4.1	9	1
